High-throughput results as filed in PubChem.
Mtb growth: M. tuberculosis H37Rv growth inhibitors, H37Rv strain (AID 1626). 220,000 tested, 0.95% active. inhibition, % at 10 µM, or IC50 in µM where a hit was titrated. M. tuberculosis H37Rv growth inhibition; higher % means a stronger effect;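 active = confirmed in a dose series; inconclusive = inhibition above 80% but not taken into the dose series; inactive = below 80% or under 30% at every dose of the series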;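 also: bacteria incubated seven days before Alamar blue readout; 0% = bacteria only wells and 100% = bacteria with antibiotic wells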
Arbovirus inh: antivirals against arbovirus infection, primary screen, cell-based, full library, 10K replicate subset; arbovirus infection cell-based antiviral screen; 200,000 tested, 0.37% active; AID 1251, 2008; inhibition, % at 10 µM;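 active = inhibition from about 30%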;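 also: bluetongue infection of BSR cells; cell survival read as ATP light after 72 h; 0% = infected wells without compound and 100% = uninfected wells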
Mtb bLac sens: beta-lactam sensitization of Mtb H37Rv, H37Rv. M. tuberculosis H37Rv growth with meropenem, percent inhibition; hits of this screen are not shown here. inhibition, % at 25 µM. 330,000 tested, 0.27% active;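 active = about 74% or more and at least 40 points above the plate without the antibiotic, then above 30% in a dose series; inconclusive = first-round hits that could not be retested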;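 also: growth measured after seven days incubation then overnight dye step; 0% = bacteria only wells and 100% = bacteria with antibiotic; twin plates without the antibiotic show which effects depend on it; some results filed as inactive read as strong as hits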
RecA intein inh: Mtb RecA intein splicing inhibitors, primary screen, biochemical, fluorescence, HTS; Protein RecA (Mycobacterium tuberculosis (strain ATCC 25618 / H37Rv)), P9WHJ3; cell-free RecA intein splicing; inhibition, %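 (about 9 µM by stock and volumes)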; 290,000 tested, 0.75% active; AID 2221, 2009; in the data active = inhibition above about 30%; inconclusive = no clear call, values can overlap the other calls;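 also: 0% = vehicle wells and 100% = reference inhibitor control wells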
Target sequence (P9WHJ3 whole entry, looked up): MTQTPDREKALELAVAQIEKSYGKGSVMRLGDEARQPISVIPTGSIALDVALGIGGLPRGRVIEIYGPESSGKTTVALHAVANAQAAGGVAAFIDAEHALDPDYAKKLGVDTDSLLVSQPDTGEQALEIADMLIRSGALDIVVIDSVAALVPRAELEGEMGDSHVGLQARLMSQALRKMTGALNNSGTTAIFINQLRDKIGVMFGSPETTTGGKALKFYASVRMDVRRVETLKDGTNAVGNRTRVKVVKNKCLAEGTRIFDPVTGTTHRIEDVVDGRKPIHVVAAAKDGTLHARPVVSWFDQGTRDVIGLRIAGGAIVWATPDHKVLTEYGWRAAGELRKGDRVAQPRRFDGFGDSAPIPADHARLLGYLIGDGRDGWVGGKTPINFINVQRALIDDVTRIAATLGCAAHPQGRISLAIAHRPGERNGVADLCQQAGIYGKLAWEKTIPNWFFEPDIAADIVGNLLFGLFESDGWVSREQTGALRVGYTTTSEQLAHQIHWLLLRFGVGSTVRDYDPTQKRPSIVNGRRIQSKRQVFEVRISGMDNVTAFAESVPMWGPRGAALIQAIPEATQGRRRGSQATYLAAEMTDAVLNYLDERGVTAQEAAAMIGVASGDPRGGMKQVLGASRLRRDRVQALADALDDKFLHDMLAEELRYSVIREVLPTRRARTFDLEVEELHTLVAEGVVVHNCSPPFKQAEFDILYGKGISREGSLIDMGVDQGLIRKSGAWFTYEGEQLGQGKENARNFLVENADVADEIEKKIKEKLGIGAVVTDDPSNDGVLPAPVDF
YopH inh: YopH tyrosine phosphatase inhibitors, primary screen, biochemical, fluorescence Ex485/Em525 | AID 898, 2007 | inhibition, %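 (about 10 µM by stock and volumes)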 | YopH tyrosine phosphatase [Yersinia enterocolitica] | 140,000 tested, 0.16% active;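 active = inhibition of 50% or more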;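 also: controls were vehicle for no effect and minimum signal wells for full effect; inactives centre near -20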
Arbovirus inh repeat: also measured in Arbovirus inh; calls as there; inhibition, %; measured here: 10K subset replicate screen; many hits read low in the repeat;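 first of two repeat runs on a subset; 0% = infected and 100% = uninfected wells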
The depositor's hits bear a star; ? = inconclusive; · = not tested or not shown. Not all compounds are listed. The share of hits here may be higher or lower than overall.

SMILES	Mtb growth	Arbovirus inh	Mtb bLac sens	RecA intein inh	YopH inh	others
CCC1=C(C)C(N2CCOCC2)=NP(N2CCOCC2)(N2CCOCC2)=N1	-2.0%	-7.7	-7.4	1.5	2.0
COC(=O)CSc1nc2nc(C)c(Br)cc2[nH]1	-5.0%	4.5	-9.7	-1.2	-26.8
CCOC(=O)C(O)(c1ccc(N(CC)S(=O)(=O)c2ccccc2)cc1)C(F)(F)F (stereo not drawn)	-14.3%	4.9	-11.6	0.6	-5.2
Cn1cc(C(=O)N2CCN(c3ccccn3)CC2)c(=O)c2cc(S(=O)(=O)N3CCOCC3)ccc21	6.4%	11.5	-4.3	·	-20.0
COCCCNC(=O)c1cc2cc(Br)ccc2oc1=O	-3.5%	2.1	3.6	-3.8	·
CCn1c(SCC(=O)Nc2nccs2)nnc1-c1cc2cccc(OC)c2o1	-7.7%	-4.3	·	·	-43.1
O=C(Nc1nnc(COc2ccc(F)cc2)s1)Nc1ccccc1F	7.5%	·	2.6	-0.2	·
CC1=CC(C)(C)N(C(=O)c2ccc(F)cc2)c2cc3c(cc21)OCO3	·	10.9	4.7	14.4	-38.6
O=C(NC1CCCCC1)C(c1ccco1)N(C(=O)c1csnn1)c1ccccc1 (stereo not drawn)	·	·	-1.3	0.5	·
CN(C)c1ccc(/C=C2\NC(=S)N(Cc3ccccc3)C2=O)cc1	9.1%	-13.9	-8.2	-1.9	13.5
C=CCn1c(N)c(C(=O)NCCC2=CCCCC2)sc1=S	-6.3%	-1.3	14.5	13.5	-34.8
COCCNC(=O)c1cc(-c2cccc(OC)c2)on1	-3.9%	-0.3	-5.5	5.0	-43.2
CC(C)CN1C(=O)c2ccc(NC(=O)c3cccs3)cc2C1=O	8.3%	-11.1	6.8	-1.1	-20.1
CN(C(=O)c1cc2n(n1)C(C(F)(F)F)CC(c1ccco1)N2)c1ccccc1 (stereo not drawn)	2.5%	-2.7	3.1	-2.8	-13.5
CC1CCN(C(=S)NC(=O)c2cccs2)CC1	?	-5.7	90.6	-0.6	·
CC1(C)CC(=O)C=C(Nc2ccc(F)cc2F)C1	3.4%	4.5	3.2	-5.6	4.3
CC(=O)N1c2ccc(S(=O)(=O)N3CCCC(C(=O)N4CCCCC4)C3)cc2CC1C (stereo not drawn)	·	·	-7.0	-0.2	·
O=C(NCCCN1CCN(c2ccc(F)cc2)CC1)C1CCCN(c2ncnc3c2nc2n3CCCCC2)C1 (stereo not drawn)	·	·	10.5	0.5	·
Cc1ccc(OCC(=O)Nc2ccc(C(=O)O)cc2NC(=O)COc2ccc(C)c(C)c2)cc1C	·	·	2.3	1.7	·
CN(C)CCN(C(=O)c1ccc(N2C(=O)CCC2=O)cc1)c1nc2cc3c(cc2s1)OCO3	3.2%	-2.8	-1.0	-1.0	·
Cc1ccc(N2CN(Cc3cccnc3)CNC2=S)cc1	3.5%	-5.1	-9.3	-0.3	-21.8
Cc1nnc(NC(=O)CSc2nnc(CNC(=O)c3ccc(F)cc3)o2)s1	·	·	3.1	-5.5	·
Cc1ccc(C(=O)N/C(=C/c2cccs2)C(=O)NCCc2c[nH]c3ccccc23)cc1	7.1%	-18.6	5.5	6.1	-18.8
O=[N+]([O-])c1ccc(-c2nnc(S)n2-c2ccccc2)cc1	·	·	-7.4	-1.9	·
Cc1cc(C(F)(F)F)nn1CC(=O)NCc1cccs1	-4.1%	-4.1	1.8	·	·
CCc1ccc(NC(=S)NC2CCN(Cc3ccccc3)CC2)cc1	6.1%	-0.9	-2.9	1.8	-29.2
Cn1c(CCN2CCN(c3ccccn3)CC2)nc2cc(NC(=O)COc3ccccc3)ccc21	·	·	58.2	2.4	·
COc1ccccc1-n1c(SCC(N)=O)nc2c(c1=O)SCC2	7.8%	0.1	-4.0	5.2	-44.8
Nc1nc2c(Cl)ccc(Cl)c2s1	6.2%	-4.4	-1.9	-1.3	·
CC(=O)c1ccc(CCCC(=O)O)cc1	2.7%	1.1	?	1.1	-52.6
CC1CSc2nc3sc4c(c3c(=O)n21)CCCC4 (stereo not drawn)	4.2%	-2.3	2.0	2.2	-46.1
CCCCN(C)CCNS(=O)(=O)c1ccc2c(c1)n(C)c(=O)c(=O)n2C	-0.1%	0.6	-6.2	1.0	-38.3
O=C(COC(=O)c1ccc(NS(=O)(=O)c2ccc3c(c2)OCCO3)cc1)NC1CCS(=O)(=O)C1 (stereo not drawn)	3.5%	3.2	6.5	-7.4	·
CC(C)c1ccc(NC(=O)CCc2ccccc2)cc1	·	·	88.9	-0.3	·
Cc1ccc(Oc2ccccc2NC(=O)CN2C(=O)NC3(CCCC3)C2=O)cc1	·	·	-3.6	-3.3	·
CC(C)C(=O)c1cc2c(cc1NC(=O)c1cccs1)OCCO2	8.8%	-4.8	-1.9	-4.6	-39.4
O=C(NCC1CCCO1)c1ccc2c(c1)N(Cc1ccccc1)C(=O)CS2=O (stereo not drawn)	6.1%	-3.0	4.2	1.3	-26.0	Arbovirus inh repeat=1.3
Cc1cc(C)n(-c2ccc(C(=O)C(C#N)c3nc4ccccc4n3C)cc2)n1 (stereo not drawn)	1.6%	-10.5	-8.8	-1.5	-39.1
COc1ccc(S(=O)(=O)N2CCCC2)c(C)c1C	-6.7%	6.8	-20.4	·	-6.0
CCOc1ccc(NC(=S)NCCCc2ccccc2)cc1	59.0%	3.2	81.2	5.4	·

Copied from above (14 entries):
SMILES	Mtb growth	Arbovirus inh	Mtb bLac sens	RecA intein inh	YopH inh	others
Cn1c(CCN2CCN(c3ccccn3)CC2)nc2cc(NC(=O)COc3ccccc3)ccc21	·	·	58.2	2.4	·
COc1ccccc1-n1c(SCC(N)=O)nc2c(c1=O)SCC2	7.8%	0.1	-4.0	5.2	-44.8
Nc1nc2c(Cl)ccc(Cl)c2s1	6.2%	-4.4	-1.9	-1.3	·
CC(=O)c1ccc(CCCC(=O)O)cc1	2.7%	1.1	?	1.1	-52.6
CC1CSc2nc3sc4c(c3c(=O)n21)CCCC4 (stereo not drawn)	4.2%	-2.3	2.0	2.2	-46.1
CCCCN(C)CCNS(=O)(=O)c1ccc2c(c1)n(C)c(=O)c(=O)n2C	-0.1%	0.6	-6.2	1.0	-38.3
O=C(COC(=O)c1ccc(NS(=O)(=O)c2ccc3c(c2)OCCO3)cc1)NC1CCS(=O)(=O)C1 (stereo not drawn)	3.5%	3.2	6.5	-7.4	·
CC(C)c1ccc(NC(=O)CCc2ccccc2)cc1	·	·	88.9	-0.3	·
Cc1ccc(Oc2ccccc2NC(=O)CN2C(=O)NC3(CCCC3)C2=O)cc1	·	·	-3.6	-3.3	·
CC(C)C(=O)c1cc2c(cc1NC(=O)c1cccs1)OCCO2	8.8%	-4.8	-1.9	-4.6	-39.4
O=C(NCC1CCCO1)c1ccc2c(c1)N(Cc1ccccc1)C(=O)CS2=O (stereo not drawn)	6.1%	-3.0	4.2	1.3	-26.0	Arbovirus inh repeat=1.3
Cc1cc(C)n(-c2ccc(C(=O)C(C#N)c3nc4ccccc4n3C)cc2)n1 (stereo not drawn)	1.6%	-10.5	-8.8	-1.5	-39.1
COc1ccc(S(=O)(=O)N2CCCC2)c(C)c1C	-6.7%	6.8	-20.4	·	-6.0
CCOc1ccc(NC(=S)NCCCc2ccccc2)cc1	59.0%	3.2	81.2	5.4	·

Remaining list, next part.
SMILES	Mtb growth	Arbovirus inh	Mtb bLac sens	RecA intein inh	YopH inh	others
COc1ccc(/C=C/C(=O)N2CCCc3ccccc32)c(OC)c1	·	·	25.8	10.9	·
COc1nc(NCC(C)C)nc(Oc2ccc(OCc3ccccc3)nn2)n1	-9.3%	0.3	2.3	3.1	-7.9
Cc1ccc(N2C(=O)N(CC(=O)Nc3cccc(Cl)c3)C(=O)C2C)cc1 (stereo not drawn)	·	·	3.8	2.7	·
CC1=CC(c2ccc(Cl)cc2)n2nc(N3C(=O)CCC3=O)nc2N1 (stereo not drawn)	-7.7%	0.2	-3.0	-14.1	-10.9
COc1ccc(/C(O)=C/c2nc3ccccc3n(-c3ccccc3)c2=O)cc1	2.1%	-5.4	7.7	-80.7	-15.6
CCN(c1cccc(C)c1)S(=O)(=O)c1ccc(-n2cccn2)cc1	·	·	1.8	0.2	·
O=C(O)CCc1ccc(-c2ccc(Cl)cc2)n1CC(=O)O	-5.1%	11.1	4.1	0.0	-70.8
COc1ccc(C)cc1NC(=O)n1ncc2cc(Cl)ccc21	·	·	1.7	-1.3	·
CSc1nc2ccsc2c(=O)n1-c1ccccn1	3.3%	2.9	-2.4	-1.5	·
